Mtb MenB inh: blocks the Mycobacterium tuberculosis MenB enzyme; inhibition, %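 (about 12 µg/mL by stock and volumes)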; AID 540299; 100,000 compounds, 0.43% hits; P9WNP5; MenB enzyme assay, absorbance read-out; some hits fall short of the stated cut;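 active means mean of two replicates above 30%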;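 further: 0% = no compound and 100% = wells with inactive enzyme; the first replicate is given; strong numbers were not always called active; inactives centre near -10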
MbtI inh: MbtI salicylate synthase inhibition; AID 493033; inhibition, %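 (about 17 µg/mL by stock and volumes)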; P9WFX0; purified MbtI enzyme, fluorescence intensity read-out; 100,000 compounds, 0.89% hits;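 active means above 50% in both replicates, above 80% if mildly self-fluorescent; inactive means the rest, strongly fluorescent compounds included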;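 further: 0% = mean of negative and 100% = mean of positive controls; one replicate is shown; some compounds called inactive have numbers as strong as hits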
Target sequence (P9WFX0 whole entry, looked up): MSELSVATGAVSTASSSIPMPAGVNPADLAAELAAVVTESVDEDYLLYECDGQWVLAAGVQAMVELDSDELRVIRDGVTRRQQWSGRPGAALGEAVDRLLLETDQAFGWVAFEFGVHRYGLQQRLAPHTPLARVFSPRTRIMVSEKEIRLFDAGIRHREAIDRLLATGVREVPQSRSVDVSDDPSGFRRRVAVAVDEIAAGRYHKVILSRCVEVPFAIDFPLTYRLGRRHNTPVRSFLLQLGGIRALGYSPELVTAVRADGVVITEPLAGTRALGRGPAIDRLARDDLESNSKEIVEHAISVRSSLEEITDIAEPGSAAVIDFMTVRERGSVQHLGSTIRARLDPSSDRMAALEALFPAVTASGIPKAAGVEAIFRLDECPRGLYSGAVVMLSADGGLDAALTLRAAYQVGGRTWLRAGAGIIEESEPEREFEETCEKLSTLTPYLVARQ
Polio RdRp inh: poliovirus RNA polymerase inhibition; AID 588519; 150,000 compounds, 0.66% hits; % elongation, % (compound at 16.7 µg/mL); poliovirus polymerase elongation, fluorescence polarization; hits give low values; in the data active means % elongation below about 90%; further: some results filed as inactive read as strong as hits
Target sequence (P03300 1749-2209 limits assumed): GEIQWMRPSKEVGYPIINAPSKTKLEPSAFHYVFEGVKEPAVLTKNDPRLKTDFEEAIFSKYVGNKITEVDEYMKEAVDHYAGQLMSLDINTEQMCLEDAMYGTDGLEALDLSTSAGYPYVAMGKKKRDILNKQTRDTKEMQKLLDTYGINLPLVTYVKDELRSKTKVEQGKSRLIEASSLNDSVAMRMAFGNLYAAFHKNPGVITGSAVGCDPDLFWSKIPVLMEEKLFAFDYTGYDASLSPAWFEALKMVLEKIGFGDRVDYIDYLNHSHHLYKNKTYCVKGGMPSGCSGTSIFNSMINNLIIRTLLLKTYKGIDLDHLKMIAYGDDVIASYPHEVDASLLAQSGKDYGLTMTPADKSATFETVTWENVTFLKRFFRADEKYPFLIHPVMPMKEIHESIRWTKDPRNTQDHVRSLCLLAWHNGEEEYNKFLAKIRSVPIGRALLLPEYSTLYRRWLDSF
Polio RdRp inh intensity: second read-out of Polio RdRp inh, no call of its own (marks repeat the call); % elongation; measured here: total intensity read-out; formula for this scale not given here;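 total fluorescence in place of polarization; lower means less elongation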
* hit, by the source's call; · = no result given; & = joins results of further samples. Rows are unselected. Share with any hit: about 1.9%.

no.	Structure	Mtb MenB inh	MbtI inh	Polio RdRp inh	Polio RdRp inh intensity
1	COc1ccccc1C(=O)C1C(=O)NC2(C)CC1c1cccc(OC)c1O2 (stereo not given)	5	24	100	102
2	COc1ccc2c(CC(=O)N(C)CC3COc4ccccc4O3)coc2c1 (stereo not given)	-18	-15	105	107
3	CCOC(=O)c1c(NC(=O)C(C)Sc2nc3c(cnn3-c3ccc(C)cc3)c(=O)[nH]2)sc2c1CCC2 (stereo not given)	1	-6	102	104
4	C/C(=N\NC(=O)CSc1nnc(-c2ccccc2)n1-c1ccccc1)c1cccs1	-12	-4	104	103
5	Nc1ccc(Cl)cc1C(=O)c1ccccc1	-19	-2	101	104
6	CCc1ccc(S(=O)(=O)N2CCCC2C(=O)OC)cc1 (stereo not given)	-32	-14	103	102
7	Cc1cccc(C(=O)c2ccccc2C(=O)O)c1O	·	-2	103	103
8	OCCSc1n[nH]c(-c2ccccc2)n1	6	-38	100	102
9	CC(=O)Nc1ccc(NCC(O)Cn2ccc3ccccc32)cc1 (stereo not given)	15	3	101	101
10	O=C(Nc1cccc(-c2cn3cccnc3n2)c1)C1CCCC1	-20	108	101	98
11	CC(=O)Nc1ccc(S(=O)(=O)N2CCc3ccccc32)cc1	-5	·	118	135
12	O=C(NCCOc1ccccc1Cl)c1ccccc1Br	·	-8	102	104
13	COC(CNCc1cc(Cl)c2c(c1)OCCCO2)OC	2	-6	103	105
14	COc1ccc(-c2ocnc2C(=O)NCc2ccccc2)cc1	15	122	100	103
15	CCCNS(=O)(=O)c1ccc(-n2cnnn2)c(OC)c1	26	10	103	101
16	O=C(COc1ccccc1C(=O)O)NC12CC3CC(CC(C3)C1)C2	·	-6	100	103
17	O=C(Cn1nc(C(F)(F)F)c2c1CCCC2)N1CCCc2ccccc21	-13	·	107	115
18	CN1C(=C(C#N)C(=O)CN2c3cccc4cccc(c34)S2(=O)=O)N(C)c2ccccc21	4	-4	100	121
19	CC(c1ccccc1)n1c(SCc2cc(=O)oc3cc(O)ccc23)n[nH]c1=O (stereo not given)	-11	-2	102	104
20	S=c1nc(Nc2ccccc2)c2ccccc2[nH]1	-36	-79	92	86
21	Cc1cc(NC(=O)COc2coc(CN3CCc4ccccc4C3)cc2=O)no1	12	14	103	105
22	O=C(c1ccccc1)N1CCCCC(Sc2ccccc2)C1=O (stereo not given)	·	-9	101	101
23	Brc1cnn(Cc2ccccc2)c1	9	-10	102	103
24	CCC(=N\Nc1nc(C)cc(=O)[nH]1)/C(CC)=N/Nc1nc(C)cc(=O)[nH]1	-73	-2	102	106
25	Cc1nc2nc(N3C(=O)c4ccccc4C3=O)[nH]n2c(=O)c1Cl	-13	-9	106	99
26	COc1ccc(C(CC#N)c2ccccc2)cc1 (stereo not given)	-13	-7	101	105
27	O=C(C1CCN(C(=O)N2CCOc3ccccc32)CC1)N1CCOCC1	-18	-3	104	105
28	Cc1ccc(S(=O)(=O)N(C)C2CCS(=O)(=O)C2)cc1C (stereo not given)	-23	-12	·	·
29	O=C1CSC(=Nc2ccc(O)cc2)N1	8	5	103	103
30	O=c1ncn(Cc2ccccn2)cc1-c1ccccc1	-16	-3	106	105

Another view of part of the listing above:
(9) CC(=O)Nc1ccc(NCC(O)Cn2ccc3ccccc32)cc1 (stereo not given)
  Mtb MenB inh = 15; MbtI inh = 3; Polio RdRp inh = 101; Polio RdRp inh intensity = 101

(23) Brc1cnn(Cc2ccccc2)c1
  Mtb MenB inh = 9; MbtI inh = -10; Polio RdRp inh = 102; Polio RdRp inh intensity = 103

Other compounds
no.	Structure	Mtb MenB inh	MbtI inh	Polio RdRp inh	Polio RdRp inh intensity
31	c1ccc2[nH]c(C3CCN(CCN4CCOCC4)CC3)nc2c1	0	-6	105	106
32	COC(=O)c1ccccc1NC(=O)Cn1c(CCC(=O)O)ccc1-c1ccccc1	-18	-4	105	104
33	COc1cc(C(=O)OCC(=O)/C=C2/N(C)c3ccccc3C2(C)C)ccc1OCC(=O)N1CCOCC1	-51	3	103	108
34	CC1(C)CC(CCC(=O)Nc2ccc(S(N)(=O)=O)cc2)C(=O)O1 (stereo not given)	-15	-7	99	100
35	Cc1occc1-c1nnc2sc(-c3cccs3)nn12	-79	63	102	96
36	Cc1occc1-c1nnc2sc(Cc3cccc4ccccc34)nn12	-126	79	103	101
37	O=C(NCc1ccc(Cl)cc1)c1cnn2ccccc12	-18	108	101	95
38	CN(C)C1(CNCc2cnn(-c3ccccc3)n2)CCCCC1	8	-1	88*	100*
39	CC(=O)SC[C@@H](C)C(=O)N1CCC[C@H]1C(=O)O	-20	·	104	105
40	CC(=O)n1cc(/C=N/NC(=O)c2sc(C)nc2C)c2ccccc21	-19	34	97	107
41	O=C(COc1ccc(-c2nnco2)cc1)NCCC1=CCCCC1	-7	-3	98	105
42	CCC(=O)NC(=S)Nc1ccccc1	-17	5	100	100
43	CC1CCC(C#N)(N(C)C(=O)COC(=O)c2ccc(CSc3ncn[nH]3)cc2)CC1 (stereo not given)	-34	5	·	·
44	O=C(Cc1ccc(NC2=NC3CS(=O)(=O)CC3S2)cc1)Nc1ccccc1 (stereo not given)	-14	-11	103	107
45	COc1ccc(C(CC(=O)c2ccco2)C2CCCCC2=O)cc1 (stereo not given)	·	-2	106	104
46	O=C(OCn1nnc2ccccc2c1=O)C1CCN(C(=O)c2ccc(Cl)cc2)CC1	7	15	99	102
47	Cc1cc(/C=C(\C#N)C(=O)NCc2cccs2)c(C)n1C1CCCC1	-74	-12	102	99
48	CCc1ccc2nc(Cl)c(CO)cc2c1	-3	75	104	107
49	O=C(CSc1nnc(COc2ccccc2Cl)o1)NC(=O)c1ccccc1	-6	-2	·	·
50	Nc1cc(C(=O)OCC(=O)N2CCCc3ccccc32)ccc1Cl	·	-21	103	107
51	Cc1ccccc1NC(=O)N1CCCC(c2nc(-c3ccc(F)cc3)no2)C1 (stereo not given)	29*	2	103	98
52	O=c1ccc2cc(S(=O)(=O)N3CCOCC3)ccc2o1	8	5	99	102
53	CC(C)(C)c1ccc(C(=O)NCCN2CCCC2)cc1	-41	-6	104	105
54	CCn1c(C)c(P(=O)(N2CCOCC2)N2CCOCC2)c2ccccc21	-21	9	99	99
55	COc1cc2c(cc1OC)CN(S(=O)(=O)c1ccc3c(c1)OCCCO3)CC2	6	2	100	102
56	N#Cc1cccc(NC(=O)COC(=O)c2ccc(Cl)cc2N)c1	-29	107	104	108
57	CCCCCC(=O)/C=C/C=C\C/C=C\C/C=C\CCCC(=O)O	8	-14	101&101	104&102
58	FC(F)(F)c1cccc(CN2CCSCC2)c1	-7	-3	97	101
59	CC(c1ccccc1)n1c(COc2ccccc2)nc2ccccc21 (stereo not given)	-11	6	101	107
60	CC(=O)NC(Cc1ccccc1)C(=O)OCN1C(=O)c2ccccc2C1=O (stereo not given)	-6	-7	101	100

Some values from above.
`O=C(Cc1ccc(NC2=NC3CS(=O)(=O)CC3S2)cc1)Nc1ccccc1` (stereo not given) in Polio RdRp inh: 103
`c1ccc2[nH]c(C3CCN(CCN4CCOCC4)CC3)nc2c1` in MbtI inh: -6
`CC(=O)n1cc(/C=N/NC(=O)c2sc(C)nc2C)c2ccccc21` in Mtb MenB inh: -19
`Cc1occc1-c1nnc2sc(-c3cccs3)nn12` in MbtI inh: 63
`CCc1ccc2nc(Cl)c(CO)cc2c1` in Mtb MenB inh: -3
`CC1(C)CC(CCC(=O)Nc2ccc(S(N)(=O)=O)cc2)C(=O)O1` (stereo not given) in MbtI inh: -7

Going on with the list.
Each structure is followed by: Mtb MenB inh | MbtI inh | Polio RdRp inh | Polio RdRp inh intensity
61	Cc1nc(-c2coc3c(I)c(O)ccc3c2=O)cs1
→ -11 | 7 | 101 | 103
62	O=S(=O)(NCCSc1ccccc1)c1ccc(Cl)cc1
→ 4 | -6 | 100 | 104
63	Cc1ccccc1C=C1C(=O)N(C)C(=S)N(C)C1=O
→ -125 | 72* | 98 | 99
64	COCCn1cnc2c1c(=O)n(Cc1ccc(C(=O)OC)cc1)c(=O)n2Cc1ccccc1
→ -12 | -7 | 105 | 107
65	CCc1cc2c(=O)n(Cc3ccco3)c(SCC(=O)NCC3CCCO3)nc2s1 (stereo not given)
→ -9 | 0 | 105 | 103
66	CCC1CCCCN1C(=O)CCS(=O)(=O)c1ccccc1 (stereo not given)
→ 0 | 6 | 102 | 104
67	CC(C)NC[C@@H](O)COc1ccc(CC(N)=O)cc1
→ -12 | -15 | 102 | 100
68	O=C(Nc1nc2ccccc2[nH]1)c1ccc2c(=O)n3c(nc2c1)CCCCC3
→ -22 | 5 | 100 | 102
69	Cc1ccc(-c2nc3ccccc3c(=O)n2-n2cccc2)cc1
→ 0 | 0 | 103 | 102
70	CCN(CC)c1ccc(/C=N/NC(=O)CC(C)C)cc1
→ -41 | -279 | 105 | 98
71	COc1ccc(Cn2c(SCC(=O)NCc3ccccc3)nc3c(oc4ccccc43)c2=O)cc1
→ 0 | -1 | 102 | 102
72	CCN1C(=O)c2cccc3c(S(=O)(=O)NCCc4ccc(OC)c(OC)c4)ccc1c23
→ -39 | 3 | 102 | 103
73	CC1CCN(CC(=O)c2cccc(Br)c2)CC1
→ -17 | 4 | 104 | 110
74	Cn1c(=O)c2c(ncn2CCC(=O)N2CCN(c3cccc(C(F)(F)F)c3)CC2)n(C)c1=O
→ 17 | 1 | 101 | 104
75	CCOC(=O)/C(C#N)=C/C=C1\C=Cc2ccccc2N1CC
→ 0 | -4 | 135 | 142
76	COc1ccc(C(=O)NC(=O)c2ccccc2O)cc1OC
→ 0 | -10 | 103 | 111
77	O=C(O)/C=C\C(=O)Nc1ccc2nc[nH]c2c1
→ -9 | 7 | 101 | 103
78	CC1(C)C(=O)Nc2ccccc2N1C(=O)Cn1ccsc1=N
→ -24 | -3 | 99 | 90
79	CCCn1c(N)c(C(=O)CSc2ncc(C(F)(F)F)cc2Cl)c(=O)[nH]c1=O
→ -7 | 8 | 99 | 103
80	CC(C(=O)NCCc1c[nH]c2ccccc12)N1Cc2ccccc2C1=O (stereo not given)
→ -6 | -8 | 100 | 100

Each structure is followed by: Mtb MenB inh | MbtI inh | Polio RdRp inh | Polio RdRp inh intensity
81	Cc1ccc2nc(N=C(N)N)[nH]c2c1
→ -32 | -8 | 102 | 94
82	CCOc1cc(N2CCOCC2)c(OCC)cc1NC(=O)c1cccc(-n2cnnn2)c1
→ -18 | -1 | 107 | 105
83	NC(N)=NC(=O)c1ccc(N)cc1
→ 24 | -10 | 99 | 102
84	CN(C(=O)CSc1nncc2ccccc12)c1ccccc1
→ · | 3 | 102 | 104
85	O=C(CN1C(=O)C2C3C=CC(C3)C2C1=O)N[C@@H](Cc1ccccc1)c1nc2ccccc2[nH]1 (stereo not given in full)
→ -13 | 7 | 99 | 105
86	Cc1cc(NC(=O)c2ccc(NC(=O)C(C)C)cc2)no1
→ 9 | 4 | 103 | 104
87	COC(=O)Cc1c(C)ncnc1OCC(=O)Nc1ccc2c(c1)OCCO2
→ -10 | -6 | 102 | 104
88	Cc1ccccc1NC(=O)N1CC(C)Sc2ccccc21 (stereo not given)
→ -1 | -12 | 103 | 102
89	CCOc1ccc(-c2nc(NC(C)=O)c3c(=O)oc4c(OC)cccc4c3n2)cc1
→ -16 | -5 | 100 | 102
90	COc1ccc(/C=C/C(=O)OCc2nc3ccsc3c(=O)[nH]2)cc1S(=O)(=O)N1CCOCC1
→ -15 | 29 | 113 | 99
91	O=C(CSCc1ccccc1)NC1CCSC1=O (stereo not given)
→ -5 | -11 | 100 | 102
92	O=C(NCCO)c1ccc2[nH]c3c(c2c1)CCCC3
→ 21 | 3 | 100 | 103
93	O=C(O)CSc1ccc(Br)cc1
→ · | -1 | 102 | 102
94	CC(=O)NCc1c(F)cccc1Cl
→ -26 | -4 | 107 | 101
95	CCOc1cc2[nH]c(=S)n(CC(OCC)OCC)c(=O)c2cc1OCC
→ 13 | 6 | 99 | 100
96	COCC(C)n1c(=S)[nH]c2ccccc2c1=O (stereo not given)
→ -26 | 10 | 103 | 109
97	CSCc1nc2sc(C(=O)NC3CC3)c(C)c2c(=O)[nH]1
→ -15 | -39 | 105 | 101
98	COc1cccc(NC(=O)CN(C)CC(=O)Nc2ccc(S(=O)(=O)N(C)C)cc2)c1
→ 7 | 14 | 101 | 106
99	CCOc1ccc(C(=O)NC)c(OCC)c1
→ -69 | -11 | 103 | 104
100	C(=C\c1ccccc1)/CSc1nc2ccccc2[nH]1
→ 12 | 8 | 101 | 103

Each structure is followed by: Mtb MenB inh | MbtI inh | Polio RdRp inh | Polio RdRp inh intensity
101	Cc1csc(SCC(=O)O)n1
→ 5 | 6 | 102 | 101
102	CCOC(=O)c1cn(CC(=O)NN)nc1C(F)(F)F
→ -11 | -1 | 105 | 102
103	COc1ccccc1NS(=O)(=O)c1ccc2oc(SCC(=O)NC(N)=O)nc2c1
→ -29 | 3 | 107 | 108
104	CCn1c(=O)cc(SCC(=O)NCc2ccccn2)c2ccccc21
→ 1 | 28 | 99 | 103
105	Cc1nn(-c2ccc(F)cc2)c(Cl)c1/C=N/NC(=O)C1CC1
→ -20 | -9 | 103 | 104
